From PubChem BioAssay
VDR inhibitor = inhibitors of human vitamin D receptor | VDR-SRC2-3 peptide fluorescence polarization, 2 h | Potency, µM, inactives show max response, negative = inhibition, actives largely listed as inhibitors | 400,000 tested, 0.93% active | AID 504847; active = well fitted inhibition curve with a large enough effect; inconclusive = small, poorly fitted or top-dose-only effect, or another doubt; inactive = no such curve, though single readings can be large or run the other way; note: series mostly up to about 120 µM
Target sequence (P11473 whole entry, looked up): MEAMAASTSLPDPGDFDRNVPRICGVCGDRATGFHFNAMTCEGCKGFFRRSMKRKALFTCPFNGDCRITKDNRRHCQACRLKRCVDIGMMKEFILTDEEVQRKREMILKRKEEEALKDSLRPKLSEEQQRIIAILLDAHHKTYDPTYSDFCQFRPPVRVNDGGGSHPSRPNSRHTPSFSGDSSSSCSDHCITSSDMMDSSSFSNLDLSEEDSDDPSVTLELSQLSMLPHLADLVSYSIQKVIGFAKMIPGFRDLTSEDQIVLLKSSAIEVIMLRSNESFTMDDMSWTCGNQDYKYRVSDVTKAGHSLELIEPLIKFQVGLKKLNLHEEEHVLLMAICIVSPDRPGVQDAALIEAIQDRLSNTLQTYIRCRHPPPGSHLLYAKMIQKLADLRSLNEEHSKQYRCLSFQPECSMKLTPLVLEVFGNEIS
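Fluorescence polarization assay measuring small-molecule disruption of VDR binding to the coregulator peptide SRC2-3. Compounds were pin-transferred (23 nl) into the reagent mix and incubated 2 h at room temperature before reading.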
Active calls of the source: *; ? = inconclusive; [ ] = remark or other dose. % is set by controls: 0 for no effect and ±100 for the full control effect; potency is the fitted concentration of half-maximal effect. Not all compounds are listed. The share of hits here may be higher or lower than overall.

VDR inhibitor	SMILES
0%	CC(=O)Nc1cccc(Oc2cc(C#N)c(C#N)cc2N2CCOCC2)c1
13%	Cn1c(SCc2ccccc2F)nnc1-c1cnccn1
-7%	CCOC(=O)N1CCN(Cc2nc3cc(NC(=O)CC)ccc3n2C)CC1
-2%	CCOc1ccc(NC(=O)c2ccc3[nH]c(C)cc(=O)c3c2)cc1
?	Cc1ccc(/C=C/C(=O)c2ccc(C)cc2)cc1
-6%	CC(C)c1ccc2oc(=O)cc(CN3CCN(c4ccc(F)cc4)CC3)c2c1
-20%	COc1ccc(OCCSc2ncnc3nc[nH]c23)cc1
13%	O=C(CCCn1c(SCC(=O)NCC2CCCO2)nc2ccccc2c1=O)NCC1CCCO1 (configuration not stated)
18%	Cc1ccc(-c2c(CN3CCN(c4cc(C)ccc4C)CC3)csc2C)cc1
-6%	Cc1ccc(C(=O)N/N=C\c2ccc([N+](=O)[O-])s2)cn1
26%	NS(=O)(=O)c1ccc(NC(=O)c2ccc(OCC3CCCO3)cc2)cc1 (configuration not stated)
?	CN(C)Cc1ccccc1C(O)(c1ccccc1)c1ccccc1
10%	Cc1ccn(CCC(=O)N2CCCC(CCC(=O)NCc3ccc(F)c(F)c3)C2)n1 (configuration not stated)
-5%	Cc1ccc(Cl)cc1NC(=O)CON=C(N)c1ccccc1
-7%	Cc1ccc(NC(=O)CSc2nnc(Cc3ccccc3)o2)cc1
13%	Cc1sc2nc(CN3CCN(S(=O)(=O)c4cccc5nonc45)CC3)[nH]c(=O)c2c1C
-2%	O=C(NCc1cccs1)c1ccc([N+](=O)[O-])cc1Cl
4%	CCN(CCNC(=O)C1CCCN(Cc2nc(-c3ccc(OC)cc3)oc2C)C1)c1ccccc1 (configuration not stated)
8%	Cc1cccc(C)c1NC(=O)Cn1nnnc1N
7%	Cc1cccc2c(N=Nc3ccc(S(=O)(=O)Nc4cccc(Cl)c4)cc3[N+](=O)[O-])c(O)[nH]c12
-2%	N=c1c(C(=O)NCc2ccc(F)cc2)cc2c(=O)n3ccccc3nc2n1Cc1ccco1
-19%	Cc1cccc(OCC(=O)Nc2cccc(C(=O)NCC(C)C)c2)c1
-2%	C=CCc1ccc(OCCCOc2ccc(C)cc2OC)c(OC)c1
?	O=C(O)COc1ccccc1/C=C1\SC(=O)N(Cc2ccc(F)cc2)C1=O
9%	COc1cc(C(=O)OCc2cccc(S(=O)(=O)N3CCOCC3)c2)ccc1OCC(C)C
8%	CCOCCCNC(=O)C1CCCN(c2ncnc3onc(C)c23)C1 (configuration not stated)
-8%	CCCNC(=O)c1ccccc1NC(=O)c1ccc(CSc2ccccc2)cc1
9%	CCOc1cc(C2c3c(-c4cc(C)ccc4O)n[nH]c3C(=O)N2CCCOC(C)C)ccc1O (configuration not stated)
0%	O=C1CC(=O)Nc2cc(S(=O)(=O)Nc3ccc(Cl)c(C(F)(F)F)c3)ccc2N1
5%	CC(=O)N/C(=C\c1ccccc1)C(=O)NCc1ccc2c(c1)OCO2
-18%	CCCCc1cc(=O)oc2cc(OCC(=O)NCCN3CCOCC3)c(Cl)cc12
-1%	C=CCSc1nc(C)c(CC=C)c(=O)[nH]1
-18%	O=C(Nc1cccc(S(=O)(=O)N2CCOCC2)c1)c1cc(=O)[nH]c2ccccc12
5%	O=C(NC(c1ccccc1)C(Cl)Cl)c1ccccc1 (configuration not stated)
-1%	O=C(CNC(=O)c1cccc(Br)c1)NCCc1nc2ccccc2[nH]1
-16%	COc1ccc(S(=O)(=O)N(CC(=O)NC2CC2)c2ccc(C)cc2)cc1OC
-10%	Cc1ccc(-n2c(C)nc3ncnc(-c4ccccc4)c32)cc1
-17%	COc1ccc(OC)c(/C=N/Nc2nncn2/N=C/c2cc(OC)ccc2OC)c1
-1%	CCOc1ccc(-n2c(=O)c3c(C)c(C)sc3n(CC(=O)N(CC)Cc3ccccc3)c2=O)cc1
-7%	COc1ccc(CCN2C(=O)CC(N3CCN(S(=O)(=O)c4ccccc4)CC3)C2=O)cc1OC (configuration not stated)
-10%	CC1CCN(C(=O)C2CCN(C(=O)c3ccc(C(C)(C)C)cc3)CC2)CC1
-11%	O=c1cc2c(nn1Cc1ccc(Cl)cc1Cl)-c1ccccc1CC2
-18%	O=C(C(=C1NCCN1)n1cncn1)c1ccccc1
-22%	c1ccc(NNC2=NCCS2)cc1
-8%	O=C(NCc1ccc(F)cc1)C1(S(=O)(=O)c2ccc(Cl)cc2)CC1
-11%	Cc1[nH]n(-c2ccccc2)c(=O)c1C=Nc1cccc2cccnc12
-29%	Cc1ccc2nc(N3C(=O)C(O)=C(C(=O)c4ccco4)C3c3ccc(C)o3)sc2c1 (configuration not stated)
12%	COc1ccc(/C=C(\C#N)c2n[nH]c(Cn3cncn3)n2)cc1
0%	CCc1noc(C)c1C(=O)N(C)CC(=O)Nc1ccc(OC)cc1
-17%	COc1ccccc1N1CCN(C(=O)COc2ccc(Cl)cc2)CC1

New compounds follow:
VDR inhibitor	SMILES
6%	O=C(CNC(=O)c1ccc(F)cc1)N/N=C/c1cn[nH]c1-c1ccccc1
5%	Cn1c2ccccc2c2c(C(=O)N3CCN(c4cccc(C(F)(F)F)c4)CC3)cn(C3CCCCC3)c(=O)c21
-2%	CCOC(=O)c1sc(NC(=O)c2c(OC)cccc2OC)nc1C
6%	CC(C)C(O)(C#CCN1CCCCC1)c1ccccc1 (configuration not stated)
12%	Cc1ccccc1CN1CCN(CC(=O)NCCCN2CCN(c3ccc(F)cc3)CC2)C1=O
-19%	CCCCn1c(N2CCC(Cc3ccccc3)CC2)nc2c1c(=O)[nH]c(=O)n2C
-2%	Cc1nc(N(C)C)c2sc(=S)n(C)c2n1
-5%	CCN1C(=O)c2ccccc2Sc2ccc(NC(=O)Cc3ccc(OC)c(OC)c3)cc21
-1%	CCOC(=O)C1=C(C)NC(=O)NC1C(C)C (configuration not stated)
-10%	c1ccc2c(-c3nc(C4CCCCC4)no3)cc(-c3ccncc3)nc2c1

No new results follow: entries from further up.
VDR inhibitor	SMILES
-18%	O=C(C(=C1NCCN1)n1cncn1)c1ccccc1
-22%	c1ccc(NNC2=NCCS2)cc1
-8%	O=C(NCc1ccc(F)cc1)C1(S(=O)(=O)c2ccc(Cl)cc2)CC1
-11%	Cc1[nH]n(-c2ccccc2)c(=O)c1C=Nc1cccc2cccnc12
-29%	Cc1ccc2nc(N3C(=O)C(O)=C(C(=O)c4ccco4)C3c3ccc(C)o3)sc2c1 (configuration not stated)
12%	COc1ccc(/C=C(\C#N)c2n[nH]c(Cn3cncn3)n2)cc1
0%	CCc1noc(C)c1C(=O)N(C)CC(=O)Nc1ccc(OC)cc1
-17%	COc1ccccc1N1CCN(C(=O)COc2ccc(Cl)cc2)CC1
6%	O=C(CNC(=O)c1ccc(F)cc1)N/N=C/c1cn[nH]c1-c1ccccc1
5%	Cn1c2ccccc2c2c(C(=O)N3CCN(c4cccc(C(F)(F)F)c4)CC3)cn(C3CCCCC3)c(=O)c21
-2%	CCOC(=O)c1sc(NC(=O)c2c(OC)cccc2OC)nc1C
6%	CC(C)C(O)(C#CCN1CCCCC1)c1ccccc1 (configuration not stated)
12%	Cc1ccccc1CN1CCN(CC(=O)NCCCN2CCN(c3ccc(F)cc3)CC2)C1=O
-19%	CCCCn1c(N2CCC(Cc3ccccc3)CC2)nc2c1c(=O)[nH]c(=O)n2C
-2%	Cc1nc(N(C)C)c2sc(=S)n(C)c2n1

Following part
VDR inhibitor	SMILES
-4%	N#Cc1cccc(CN2C=NS(=O)(=O)c3ccccc32)c1
-9%	COc1cc(CN2CCCC(CO)(Cc3ccccc3C)C2)cc2c1OCO2 (configuration not stated)
-13%	Cc1noc(C)c1CSCC(=O)Nc1ccc(S(C)(=O)=O)cc1
?	Cc1ccc(OCCC(=O)N(Cc2ccccc2)c2c(N)n(Cc3ccccc3)c(=O)[nH]c2=O)cc1
-5%	COc1ccc(/C=N/NC(=O)c2cccc(C(F)(F)F)c2)cc1
13%	C=CCn1c(SCC(=O)N2c3ccccc3Sc3ccccc32)nnc1-c1ccco1
-4%	Cn1cc(S(=O)(=O)N2CCCC2)cc1C(=O)N1CCN(c2ccccc2)CC1
14%	COc1ccc(NC(=O)C2CCCN(S(C)(=O)=O)C2)cc1 (configuration not stated)
-3%	Cc1cc(C)nc(SCc2ccc(C(=O)NNC(=O)Nc3cccc(Cl)c3)cc2)n1
8%	Cc1ccc(C)c2sc(N3CCN(C(=O)c4ccco4)CC3)nc12
28%	COC(=O)N=Nc1c(O)[nH]c2ccc(Br)cc12
14µM*	N#CC(C#N)=C1C=CC=CN1/C(=C\c1ccco1)C(=O)c1ccccc1
-19%	COc1ccc(C(=O)Oc2cc(C)[nH]c(=O)c2[N+](=O)[O-])cc1
9%	COc1ccc(-c2nc(CS(=O)(=O)CC(=O)NCCc3cc(OC)ccc3OC)c(C)o2)cc1
-5%	CCC12CCC3c4ccc(O)cc4CCC3C1CC(O)C2O (configuration not stated)
-6%	O=C(COC(=O)CNC(=O)c1ccc(Cl)cc1Cl)NCc1ccco1
-3%	Cn1c(=O)cnc2cnc(Oc3ccccc3)nc21
31%[activator]	COc1cccc(NC(=O)Cn2c3ccc(F)cc3c3nc4n(c(=O)c32)CCS4)c1
16%	CS(=O)(=O)c1ccc2nc(NC(=O)Oc3ccccc3)sc2c1
21%	CCS(=O)(=O)N1CCc2cc(C(=O)Nc3cc(C)cc(C)c3)ccc21
3%	O=C1Nc2ccccc2N(O)N1c1ccc(Cl)cc1
5%	O=C1CS/C(=N\C(=O)N2c3ccccc3Sc3ccccc32)N1
0%	CCN(CC(=O)Nc1c(F)cccc1F)C(=O)CNC(=O)c1ccco1
2%	COCCn1c(SCC(=O)Nc2ccccc2)nc2c(oc3ccccc32)c1=O
1%	NCCSc1c(-c2ccccc2)[nH]c2ccccc12
-3%	CC(=O)c1cccc(NC(=O)CSc2nc(=O)n(CCN3CCOCC3)c3c2CCCC3)c1
18%	Cc1ccc(C(=O)NNC(=O)c2ccc(NC(=O)C(C)(C)C)cc2)cc1
?	Cc1ccccc1-c1cncnc1N1CCN(C)CC1
1%	NC(=NCCc1ccc(Cl)cc1)NS(=O)(=O)c1ccc(F)cc1
?	O=C(NCc1cccnc1)C(=O)Nc1ccc2c(c1)OCO2
20%	CC1CN(C(=S)NC(=O)c2ccc(Cl)cc2)CC(C)O1 (configuration not stated)
7%	CCCCCCCC(=O)N/N=C/c1ccc(Br)cc1
5%	CCC12CC3CC(C1)CC(C(=O)O)(C3)C2
40µM*	CC1=C(/C=C/C(C)=C\C=C\C(C)=C\C=C\C=C(C)\C=C\C=C(C)\C=C\C2=C(C)C[C@@H](O)CC2(C)C)C(C)(C)C[C@H](O)C1
0%	CCc1c(C)nc2[nH]nc(-c3ccccc3C)n2c1=O
-4%	COc1cc(C(=O)NCC(=O)Nc2c(C)cccc2C)ccc1OCC(=O)N1CCOCC1
0%	COc1ccc(CNc2nc3ccc(C)cc3s2)c(OC)c1OC
12%	CCOC(=O)c1c(C)[nH]c(C)c1C(=O)COC(=O)C1CCCN1S(=O)(=O)c1ccccc1F (configuration not stated)
0%	NNC(=O)c1ccccc1OCc1ccccc1
19%	Cc1onc(-c2ccccc2Cl)c1C(=O)Nc1cccc(-c2nc3ncccn3c2C)c1
20%	COc1ccc2nc(C)cc(NCc3ccc(F)cc3)c2c1
9%	CCc1ccc(N2C(=O)CC(NNc3nc4ccccc4s3)C2=O)cc1 (configuration not stated)
-4%	CCCCN(CC)C(=O)CSc1nc2n[nH]c(C)c2c(=N)n1-c1cccc(OC)c1
8%	Cc1cc(C)nc(SCCC(=O)Nc2ccccc2)n1
-6%	COc1ccc2oc(C(=O)NNC(=O)c3ccc(F)cc3)c(C)c2c1
-4%	O=C(COC(=O)c1ccc(F)c(S(=O)(=O)N2CCOCC2)c1)NCc1ccc(F)cc1
?	CCOC(=O)C(C(=O)OCC)C(Nc1ccccc1)c1ccccc1 (configuration not stated)
-14%	Cc1nonc1CC(=O)NC1CCCc2c1cnn2-c1ccc(F)cc1F (configuration not stated)
-16%	Clc1ccc(Nc2nc(-c3ccccc3)c3cc(Cl)ccc3n2)cc1
-27%	COCc1cc(C)nc(SCc2ccc(F)cc2)c1C#N

New compounds follow.
VDR inhibitor	SMILES
-19%	CCCCCCOC(=O)C(C#N)c1nc2ccccc2nc1N1CCN(C)CC1 (configuration not stated)
3%	COc1ccc(-c2nn3c(-c4ccco4)nnc3s2)cc1OC
-9%	Cc1nnc(NC(=O)CSc2nc3c([nH]c4ccccc43)c(=O)n2-c2cccc(Cl)c2)s1
-4%	CCCn1ncc(CN2CCC(N3CCC(C(=O)N4CCOCC4)CC3)CC2)c1C
2%	CCOC(=O)c1ccc(NC(=O)N2CCN(Cc3ccccc3)CC2)cc1
9%	CCOC(=O)c1c(C)oc2ncnc(Nc3cc(Cl)ccc3OC)c12
5%	O=C(NCc1cccs1)c1cnc2ccccn2c1=O
-13%	COc1cc(CC(=O)OCC(=O)N2CC(=O)Nc3ccccc32)cc(OC)c1OC
-4%	O=C(O)C1C(c2ccccc2)C(C(=O)OCCCO)C1c1ccccc1 (configuration not stated)
-8%	CCCNC(=O)C(Cc1ccccc1)NC(=O)c1cccc([N+](=O)[O-])c1 (configuration not stated)
11%	COc1ccc(CCN2C(=O)/C(=C\c3ccco3)SC2=S)cc1OC
-21%	O=C(NNc1nc(-c2ccc(Cl)cc2)cs1)c1ccco1
-26%	COc1ccc(CCNC(=O)C2CCC(=O)N2CCc2ccccc2)cc1OC (configuration not stated)
-11%	CCOC(=O)c1ccc(NC(=O)N2CCN(Cc3cccc(F)c3)CC2)cc1
-5%	Cc1cccn2c(=O)c(C(=O)NC3CC(C)CC(C)(C)C3)c(O)nc12 (configuration not stated)
-13%	N#CCCn1cc(/C=N/NC(N)=S)c(-c2ccccc2)n1
-15%	O=c1oc2ccc(Br)cc2cc1S(=O)(=O)c1ccc(F)cc1
-7%	CCN(CC)CCNC(=S)Nc1ccc2nc(N3CCN(C)CC3)cc(C)c2c1
-8%	COc1cccc(NC(=O)NCC2CCN(Cc3ccc(F)cc3)CC2)c1
